RecA splice inh: Mtb RecA intein splicing inhibition; cell-free RecA intein splicing, fluorescence; inhibition, %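 (about 9 µM by stock and volumes)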; 290,000 compounds, 0.75% hits; in the data active = inhibition above about 30%; inconclusive = no clear call, values can overlap the other calls;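 also: 0% = vehicle wells and 100% = reference inhibitor control wells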
Target sequence (P9WHJ3 whole entry, looked up, canonical isoform): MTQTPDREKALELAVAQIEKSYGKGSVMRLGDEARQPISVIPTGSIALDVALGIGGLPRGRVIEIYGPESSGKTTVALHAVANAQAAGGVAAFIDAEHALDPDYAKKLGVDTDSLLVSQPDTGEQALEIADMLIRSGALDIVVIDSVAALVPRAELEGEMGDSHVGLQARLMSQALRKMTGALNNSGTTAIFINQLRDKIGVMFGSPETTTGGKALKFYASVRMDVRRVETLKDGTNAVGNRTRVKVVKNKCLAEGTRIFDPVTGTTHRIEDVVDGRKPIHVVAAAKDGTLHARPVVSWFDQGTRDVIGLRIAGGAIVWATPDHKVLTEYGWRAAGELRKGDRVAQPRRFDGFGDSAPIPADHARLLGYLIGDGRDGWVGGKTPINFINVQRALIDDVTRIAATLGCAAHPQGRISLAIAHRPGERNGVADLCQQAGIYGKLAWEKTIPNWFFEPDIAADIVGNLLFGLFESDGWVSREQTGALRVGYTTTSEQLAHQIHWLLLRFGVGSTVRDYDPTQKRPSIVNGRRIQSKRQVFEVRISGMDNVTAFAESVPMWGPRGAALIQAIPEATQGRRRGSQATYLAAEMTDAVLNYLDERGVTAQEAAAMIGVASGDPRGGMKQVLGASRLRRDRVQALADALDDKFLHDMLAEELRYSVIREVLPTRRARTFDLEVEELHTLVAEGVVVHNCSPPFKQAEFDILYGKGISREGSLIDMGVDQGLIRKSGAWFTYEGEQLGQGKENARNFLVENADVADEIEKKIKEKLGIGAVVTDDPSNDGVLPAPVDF
YopH PTP inh: inhibitors of Yersinia enterocolitica YopH tyrosine phosphatase. AID 898. fluorescence Ex485/Em525. 140,000 compounds, 0.16% hits. inhibition, %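 (about 10 µM by stock and volumes)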;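 active = inhibition of 50% or more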;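 also: controls were vehicle for no effect and minimum signal wells for full effect; inactives centre near -20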
Mtb H37Rv: M. tuberculosis H37Rv growth inhibitors, H37Rv strain (AID 1626) | M. tuberculosis H37Rv growth inhibition; higher % means a stronger effect | inhibition, % at 10 µM, or IC50 in µM where a hit was titrated | 220,000 compounds, 0.95% hits;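 active = confirmed in a dose series; inconclusive = inhibition above 80% but not taken into the dose series; inactive = below 80% or under 30% at every dose of the series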;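 also: bacteria incubated seven days before Alamar blue readout; 0% = bacteria only wells and 100% = bacteria with antibiotic wells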
Arbovirus anti: antivirals against arbovirus infection; arbovirus infection cell-based antiviral screen; inhibition, % at 10 µM; 200,000 compounds, 0.37% hits;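 active = inhibition from about 30%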;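 also: bluetongue infection of BSR cells; cell survival read as ATP light after 72 h; 0% = infected wells without compound and 100% = uninfected wells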
Mtb bLac sens: beta-lactam sensitization of Mtb H37Rv | inhibition, % at 25 µM | 330,000 compounds, 0.27% hits | M. tuberculosis H37Rv growth with meropenem, percent inhibition; hits of this screen are not shown here | AID 434955;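 active = about 74% or more and at least 40 points above the plate without the antibiotic, then above 30% in a dose series; inconclusive = first-round hits that could not be retested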;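 also: growth measured after seven days incubation then overnight dye step; 0% = bacteria only wells and 100% = bacteria with antibiotic; twin plates without the antibiotic show which effects depend on it; some results filed as inactive read as strong as hits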
Numbers without * were called inactive.

Screening Cc1ccc(NC(=O)c2oc3ccc(S(=O)(=O)N4CCOCC4)cc3c2C)c(C)c1 returned RecA splice inh -2.1, Mtb H37Rv -0.6%, Arbovirus anti -0.3 and Mtb bLac sens 1.4.
CCC(=O)N1c2ccc(S(=O)(=O)NCCc3ccccc3)cc2CC1C (stereo not drawn) was read as RecA splice inh -1.3 and Mtb bLac sens -3.8.
For c1ccc(-c2nnc(CSc3nc4ccccc4[nH]3)o2)cc1 the results were RecA splice inh 3.6, YopH PTP inh -13.3, Mtb H37Rv 2.4%, Arbovirus anti 4.9 and Mtb bLac sens 6.6.
`CCOc1cc(/C=N\n2nnnc2N)ccc1O` gave RecA splice inh -3.3 and Mtb bLac sens -10.2.
CCN1CCN(CCCNC(=O)c2ccc(NC(=O)C3=CSCCO3)cc2)CC1 was read as RecA splice inh -2.7 and Mtb bLac sens 5.6.
Screening O=C(Nc1cccc(F)c1)c1ccc2c(c1)OCO2 returned RecA splice inh 0.3, YopH PTP inh -9.5, Mtb H37Rv -2.6%, Arbovirus anti -2.8 and Mtb bLac sens -3.9.
For CC(=O)c1cccc(S(=O)(=O)N2CCC(c3nc4ccccc4[nH]3)CC2)c1 the results were RecA splice inh -1.1 and Mtb bLac sens 1.5.
For CC(C)n1c(O)c(C2c3cc(Cl)ccc3Oc3[nH]c(=O)n(C(C)C)c(=O)c32)c(=O)[nH]c1=O (stereo not drawn) the results were RecA splice inh 0.8 and Mtb H37Rv 0.6%.
`COc1cccc(SCC2CSc3nc4ccccc4c(=O)n32)c1` (stereo not drawn) gave RecA splice inh 0.6, Mtb H37Rv -0.4%, Arbovirus anti 5.3 and Mtb bLac sens -3.8.
CC1(C)Cc2cccc(OCC(=O)N3CCN(c4ccccc4)CC3)c2O1 was read as RecA splice inh -0.3, YopH PTP inh -8.7, Mtb H37Rv -6.9%, Arbovirus anti -5.5 and Mtb bLac sens 6.2.
Screening CC(C)c1ccc(C(=O)NCCCNC(=O)c2cnccn2)cc1 returned RecA splice inh -1.1 and Mtb bLac sens 1.2.
CCOC(=O)c1cnc2ccc(OCC)cc2c1N1CCN(c2ccccc2OC)CC1 was read as RecA splice inh 29.7, YopH PTP inh -3.7, Mtb H37Rv 2.4%, Arbovirus anti -40.1 and Mtb bLac sens 75.2.
For CC1(C2CC2)NC(=O)N(CC(=O)Nc2ccccc2-c2ccccc2)C1=O (stereo not drawn) the results were RecA splice inh -0.9, Mtb H37Rv -7.2%, Arbovirus anti 3.0 and Mtb bLac sens 3.0.
Screening CCCc1c(C)c(C#N)c2nc3ccccc3n2c1NCCCN1CCOCC1 returned RecA splice inh -36.5, YopH PTP inh -26.4, Mtb H37Rv -3.3%, Arbovirus anti 1.3 and Mtb bLac sens -27.6.
O=C(Nc1cccc2ccccc12)/C(=C/c1cccc([N+](=O)[O-])c1)NC(=O)c1cccs1 was read as RecA splice inh -0.7, YopH PTP inh -11.3, Mtb H37Rv 6.1%, Arbovirus anti 16.3 and Mtb bLac sens inconclusive.

Reprinted from the results shown, four compounds:
Screening CC(C)c1ccc(C(=O)NCCCNC(=O)c2cnccn2)cc1 returned RecA splice inh -1.1 and Mtb bLac sens 1.2.
CCOC(=O)c1cnc2ccc(OCC)cc2c1N1CCN(c2ccccc2OC)CC1 was read as RecA splice inh 29.7, YopH PTP inh -3.7, Mtb H37Rv 2.4%, Arbovirus anti -40.1 and Mtb bLac sens 75.2.
For CC1(C2CC2)NC(=O)N(CC(=O)Nc2ccccc2-c2ccccc2)C1=O (stereo not drawn) the results were RecA splice inh -0.9, Mtb H37Rv -7.2%, Arbovirus anti 3.0 and Mtb bLac sens 3.0.
Screening CCCc1c(C)c(C#N)c2nc3ccccc3n2c1NCCCN1CCOCC1 returned RecA splice inh -36.5, YopH PTP inh -26.4, Mtb H37Rv -3.3%, Arbovirus anti 1.3 and Mtb bLac sens -27.6.

Next section.
CC(=O)c1cccc(S(=O)(=O)N2CCN(c3ccccc3F)CC2)c1 was read as RecA splice inh -4.4, Mtb H37Rv 2.7%, Arbovirus anti 9.5 and Mtb bLac sens -4.7.
`O=C(Cc1cn2ccsc2n1)Nc1cccc2cnccc12` gave RecA splice inh -1.5, YopH PTP inh -46.9, Mtb H37Rv -7.0%, Arbovirus anti -0.9 and Mtb bLac sens 0.9.
COc1ccc2c([N+](=O)[O-])c(N3CCCC3)[nH]c2c1 was read as RecA splice inh -2.2 and Mtb bLac sens -6.3.
Cc1ccc(-c2nn(-c3ccccn3)c(=O)c3ccccc23)cc1C was read as RecA splice inh 4.4, Mtb H37Rv 17.0% and Mtb bLac sens 3.3.
Screening COc1ccc(OC)c(NC(=O)CSc2nc3ccccc3c(=O)n2CCNC(C)=O)c1 returned RecA splice inh 2.7, YopH PTP inh 5.8, Mtb H37Rv 2.5%, Arbovirus anti 0.1 and Mtb bLac sens 7.4.
For C=CCC1CCCCC12NC(=O)N(c1ccccc1)N2 (stereo not drawn) the results were RecA splice inh -1.5, Mtb H37Rv 45.6% and Mtb bLac sens 50.8.
O=C(COC(=O)c1cccnc1)c1ccc(Cl)c(Cl)c1 was read as RecA splice inh 9.2, YopH PTP inh -12.8, Mtb H37Rv 3.0%, Arbovirus anti 0.4 and Mtb bLac sens 5.9.
For c1ccc(-n2nnnc2NC2CCCCC2)cc1 the results were RecA splice inh -1.0, YopH PTP inh -47.9, Mtb H37Rv -5.0%, Arbovirus anti 3.0 and Mtb bLac sens -3.8.
COc1ccc(NC(=O)CN2CCC(C(N)=O)CC2)cc1 was read as RecA splice inh 0.6, YopH PTP inh -35.3, Mtb H37Rv -5.0%, Arbovirus anti 3.4 and Mtb bLac sens -10.4.
For CN(C)S(=O)(=O)c1cccc(NC(=O)c2ccc(S(=O)(=O)N3CCCC3)cc2)c1 the results were RecA splice inh 1.4 and Mtb bLac sens 4.6.
CC(=O)c1ccc(NC(=O)CCc2nc3sc4c(c3c(=O)[nH]2)CCCC4)cc1 was read as RecA splice inh -2.0 and Mtb bLac sens 0.1.
Screening CCC(=O)Oc1cccc(C(=O)Nc2cccc(NC(=O)c3ccco3)c2)c1 returned RecA splice inh 8.1 and Mtb bLac sens -1.4.
For COc1cc(NC(=O)c2nccnc2N)cc(C(=O)Nc2cccc(C(F)(F)F)c2)c1 the results were RecA splice inh -1.9, Mtb H37Rv -1.2% and Mtb bLac sens 1.7.
For Cc1ccc(C(=O)N2CC(=O)Nc3ccc(F)cc3C2c2ccccc2)cc1 (stereo not drawn) the results were RecA splice inh 1.0 and Mtb bLac sens -0.1.
For O=c1[nH]c(SCc2ccc(Cl)cc2)nc2ccsc12 the results were RecA splice inh -5.8, Mtb H37Rv 0.7%, Arbovirus anti 8.2 and Mtb bLac sens -0.6.
COc1ccccc1N(CC(O)CN1CCOCC1)S(=O)(=O)c1ccccc1 (stereo not drawn) was read as RecA splice inh 0.1 and Mtb bLac sens 4.5.
`c1ccc2c(c1)nc(CN1CCOCC1)n1c3ccccc3nc21` gave RecA splice inh -1.7, YopH PTP inh -18.8, Mtb H37Rv 6.7%, Arbovirus anti -6.0 and Mtb bLac sens -7.6.
`CC(=O)Nc1cccc(NC(=O)c2c(-c3ccccc3Cl)noc2C)c1` gave RecA splice inh 0.7, YopH PTP inh -14.2, Mtb H37Rv 10.5%, Arbovirus anti 0.8 and Mtb bLac sens 3.5.
For COc1ccc(N(CC(=O)Nc2ccccc2Cl)S(=O)(=O)c2ccc(C)cc2)cc1OC the results were RecA splice inh 6.7 and Mtb bLac sens -0.8.
For Cc1cc2cc(C)c3nnc(SCC(=O)NCc4ccco4)n3c2cc1C the results were RecA splice inh 1.8, YopH PTP inh -13.5, Mtb H37Rv -2.7%, Arbovirus anti -0.5 and Mtb bLac sens 0.8.
`Cc1cc2cc(CNC(=O)c3cccs3)ccc2n1C` gave RecA splice inh 19.3, YopH PTP inh -19.2, Mtb H37Rv 52.9%, Arbovirus anti -1.8 and Mtb bLac sens 19.0.
COc1ccc(NC(=O)CN(C)C(=O)C2CC(=O)N(Cc3ccc(C)cc3)C2)cc1 (stereo not drawn) was read as RecA splice inh 6.1 and Mtb bLac sens -3.3.
`C/C(=N\Nc1nc2ccc(Cl)cc2o1)c1ccccc1` gave RecA splice inh -0.7, Mtb H37Rv inconclusive and Mtb bLac sens 90.4.
`CC1CN(C(=O)C2CC(=O)N(c3ccc(Cl)cc3)C2)CC(C)O1` (stereo not drawn) gave RecA splice inh 0.2 and Mtb bLac sens -4.3.
For COc1ccc(-c2cnc3nc(/N=C/N(C)C)nn3c2/N=C/N(C)C)cc1 the results were RecA splice inh -1.7, Mtb H37Rv -4.3%, Arbovirus anti 3.1 and Mtb bLac sens -8.7.
For CCCCCc1cc(=O)oc2c(C(CCN3CCN(c4ccccc4)CC3)c3ccc4c(c3)OCO4)c(OC)cc(OC)c12 (stereo not drawn) the results were RecA splice inh -0.5, Mtb H37Rv 22.5% and Mtb bLac sens -1.3.
O=C(CN1C(=O)CCS(=O)(=O)c2ccccc21)Nc1ccccc1F was read as RecA splice inh 1.5 and Mtb bLac sens 1.4.
Brc1ccc(CN2CCN(c3ccccc3)CC2)o1 was read as RecA splice inh -2.0 and Mtb bLac sens -0.3.
Screening CCOc1ccc2nc(NCCNC(=O)c3cc(OC)c(OC)c(OC)c3)c(C#N)cc2c1 returned RecA splice inh -86.1 and Mtb bLac sens -4.7.
O=C(Cc1nc2ccccc2s1)c1ccc(O)cc1O was read as RecA splice inh 1.7, YopH PTP inh -40.6, Mtb H37Rv -10.1%, Arbovirus anti -5.0 and Mtb bLac sens -7.9.
Screening COCCNC(=O)CSc1nc2cc(OC)c(OC)cc2c(=O)n1Cc1ccc(OC)cc1 returned RecA splice inh 0.4, YopH PTP inh 6.1, Mtb H37Rv -4.3%, Arbovirus anti 7.3 and Mtb bLac sens 13.4.
`CCCCCCSc1ccc([C@H]2N[C@@](Cc3ccccc3)(C(=O)OC)[C@H]3C(=O)N(C)C(=O)[C@@H]23)cc1OC` gave RecA splice inh 0.2 and Mtb bLac sens -3.7.
For COc1ccccc1CC(=O)NCCc1ccc(S(N)(=O)=O)cc1 the results were RecA splice inh 2.8, YopH PTP inh -4.0, Mtb H37Rv -7.8%, Arbovirus anti 0.7 and Mtb bLac sens -4.0.
CCC(=O)Nc1nnc(S(=O)(=O)N2CCc3ccccc32)s1 was read as RecA splice inh 1.9 and Mtb bLac sens -5.9.
Screening CC(=O)Nc1ccccc1C(F)(F)F returned RecA splice inh -1.5, Mtb H37Rv -1.2% and Mtb bLac sens -0.8.
`CN(Cc1cnccn1)C(=O)CC1C(=O)NCCN1Cc1ccc(F)cc1Cl` (stereo not drawn) gave RecA splice inh -2.2 and Mtb bLac sens 1.6.
For CCNC(=O)NC(=O)C(C)Sc1ccc2c(c1)OCCO2 (stereo not drawn) the results were YopH PTP inh -19.4, Mtb H37Rv 5.7%, Arbovirus anti -0.7 and Mtb bLac sens -1.3.
For COc1ccc(OC)c(S(=O)(=O)Nc2cccc(F)c2)c1 the results were RecA splice inh -0.9, YopH PTP inh -31.4, Mtb H37Rv -2.0% and Arbovirus anti -1.9.
Cc1cc[n+](-c2[nH]c(=O)sc2/C=N/N=C(\[O-])c2ccncc2)cc1C was read as RecA splice inh -4.3 and Mtb bLac sens 99.2.
Screening CCOC(=O)c1c(S(=O)(=O)NCC(C)c2ccccc2)c(C)n(C)c1C (stereo not drawn) returned RecA splice inh 1.6 and Mtb bLac sens 1.6.
CCC(=O)Nc1ccc(NC(=O)c2cc3ccccc3o2)cc1 was read as RecA splice inh -1.1, YopH PTP inh -26.5, Mtb H37Rv 9.0%, Arbovirus anti 4.5 and Mtb bLac sens 4.2.
`CC(NC(=O)CCc1nnc(C2CCCCC2)o1)c1ccc(F)cc1` (stereo not drawn) gave RecA splice inh -1.0, Mtb H37Rv 3.1%, Arbovirus anti 0.6 and Mtb bLac sens -4.0.
CCCS(=O)(=O)N1CCC(C(=O)NCCCN2CCC(Cc3ccccc3)CC2)CC1 was read as RecA splice inh -4.7, YopH PTP inh -23.6, Mtb H37Rv 7.4%, Arbovirus anti 2.5 and Mtb bLac sens -3.7.
O=C(O)CCN1C(=O)c2ccc(NC(=O)CSCc3ccccc3)cc2C1=O was read as RecA splice inh -2.8, YopH PTP inh 9.1, Mtb H37Rv 2.2%, Arbovirus anti 15.9 and Mtb bLac sens -1.4.
Screening O=C(CC(=O)Nc1ccccn1)Nc1ccccn1 returned RecA splice inh -0.4, YopH PTP inh -47.8, Mtb H37Rv -6.9%, Arbovirus anti -3.2 and Mtb bLac sens -8.8.
`Cc1ccc(C)c(NC(=S)N(CCc2nc3cc(C)c(C)cc3[nH]2)Cc2cccnc2)c1` gave RecA splice inh -2.3, YopH PTP inh -42.2, Mtb H37Rv -0.9%, Arbovirus anti 3.2 and Mtb bLac sens -0.8.
COc1ccc(N2CS(=O)CC2=O)cc1 (stereo not drawn) was read as RecA splice inh -2.2, Mtb H37Rv 10.6%, Arbovirus anti -0.3 and Mtb bLac sens 0.9.
O=C(Nc1ccccc1)Nc1ccc2ocnc2c1 was read as RecA splice inh -4.8, Mtb H37Rv -3.4%, Arbovirus anti 17.6 and Mtb bLac sens 6.2.

Assay outcomes: PubChem, several laboratories

Only part of the results is shown, so the mix of outcomes need not match the whole.
